From PubChem BioAssay
miR-21 reporter: raises the signal of a miR-21 reporter; Potency, µM (titrated, usually from 38.3 µM), for the others: top-dose reporter change, positive = more light; AID 2288; 340,000 tested, under 10 active; HeLa miR-21 FLuc reporter, luciferase, 48 h; active = well fitted rising curve with a large enough effect; inconclusive = small, poorly fitted or top-dose-only effect; inactive = no such curve, though single readings can be large or run the other way;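 further: % of control where 0% means no effect; miR-21 action dims this reporter so a rising signal means less miR-21 action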
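Luminescence from a firefly luciferase reporter carrying a miR-21 binding site downstream, stably expressed under a CMV promoter in HeLa cells that make miR-21 endogenously, reports miRNA modulation after 48 h compound exposure up to approximately 40uM final.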
* marks the source's active call; other numbers are inactive results. Only part of the results is shown (hit frequency here may not be typical).

`CCc1nc2sc3c(N4CCCCC4)ncnc3c2c2c1CCCC2` gave miR-21 reporter 0%.
CC(C)c1ccc(CNCCSc2nnnn2C)cc1 was read as miR-21 reporter -12%.
Screening Cc1ccc(NC(=O)c2cc(S(=O)(=O)NC3CCCCC3)ccc2F)cc1Cl returned miR-21 reporter inconclusive.
For CCCn1c2ccccc2c2cnn(CC(=O)N(CC)c3cc(C)ccc3C)c(=O)c21 the results were miR-21 reporter inconclusive.
`COc1cc(OC)cc(C(=O)Nc2cccc(-c3cn4cccnc4n3)c2)c1` gave miR-21 reporter -8%.
`Nc1ncc(S(=O)(=O)NCc2ccc(F)cc2)cn1` gave miR-21 reporter -1%.
`C=C(C)Cn1c(SCC(=O)Nc2ccccc2C)nc2sc3c(c2c1=O)CCCC3` gave miR-21 reporter 1%.
For CCOC(=O)c1[nH]c(C)c(CCC(=O)N2CCN(c3cccc(OC)c3)CC2)c1C the results were miR-21 reporter 3%.
For Cc1ccccc1CN1c2ccccc2-c2nc(SCC(=O)c3ccccc3)ncc2S1(=O)=O the results were miR-21 reporter 0%.
For O=C(CC1C(=O)N(c2ccc(F)cc2)C(=O)N1Cc1ccc2c(c1)OCO2)Nc1ccc(Cl)cc1 (centres undefined) the results were miR-21 reporter 24%.
For Cn1c2ccccc2c2c(C(=O)N3CCN(c4ccc(F)cc4)CC3)cn(C3CCCCC3)c(=O)c21 the results were miR-21 reporter inconclusive.
CCn1c(=NC(=O)c2ccc3c(c2)OCCO3)sc2c(C)ccc(OC)c21 was read as miR-21 reporter -5%.
CCCCCn1c(CCCNC(=O)c2ccccc2)nc2ccccc21 was read as miR-21 reporter inconclusive.
`COc1ccc(C2N3CC4(C)CN2CC(c2ccccc2)(C3)C4=O)cc1OC` (centres undefined) gave miR-21 reporter 6%.
`CCN(Cc1ccccc1)C(=O)Cn1c(=O)n(-c2ccc(Cl)cc2)c(=O)c2c(C)c(C)sc21` gave miR-21 reporter 6%.
`Cc1ccc(Cl)cc1NC(=O)Cn1c(=O)n(CCC(=O)N2CCc3ccccc3C2)c(=O)c2ccccc21` gave miR-21 reporter -2%.
For O=S1(=O)c2ccccc2N(Cc2ccc(Cl)cc2F)c2ccccc21 the results were miR-21 reporter -11%.
For CC(C)c1nn2c(=O)cc(COC(=O)c3cccs3)nc2s1 the results were miR-21 reporter -61%.
Cc1ccc(C)c(N2CCN(C(=O)Cn3cnc4nc5c(cc4c3=O)CCCC5)CC2)c1 was read as miR-21 reporter 21%.
Cc1ccc(C(=O)Nc2ccc(C(=O)OCc3cc(=O)n4nc(C5CC5)sc4n3)cc2)cc1 was read as miR-21 reporter -26%.
Screening O=C(NCCCN1CCN(c2ccccc2F)CC1)c1cc2c(Cl)nc3ccccc3c2s1 returned miR-21 reporter -12%.
Screening CNC(=O)C1CCN(Cc2cc3ccccc3n2Cc2cccc(C)c2)CC1 returned miR-21 reporter 19%.
CC(=O)c1ccc(S(=O)(=O)Nc2ccc(-c3ccc(N4CCCCC4)nn3)cc2)cc1 was read as miR-21 reporter 1%.
For CCN(c1cc(C)cc(C)c1)S(=O)(=O)c1nnc(NC(=O)c2cccs2)s1 the results were miR-21 reporter 19%.
For Cc1noc2ncnc(NCc3cccc(Cl)c3)c12 the results were miR-21 reporter 19%.
Screening O=C(COc1ccccc1)Nc1c(C(=O)N2CCN(c3ccc(F)cc3)CC2)oc2ccccc12 returned miR-21 reporter -1%.
Screening Cc1cc2oc(C(=O)Nc3ccc(S(=O)(=O)N(C)Cc4ccccc4)cc3)cc(=O)c2cc1C returned miR-21 reporter -1%.
`COc1ccc(N2CC(NC(=O)C(c3ccccc3)c3ccccc3)CC2=O)cc1` (centres undefined) gave miR-21 reporter 0%.
For Cc1ccc(C)c(NC(=O)CN2CCCN(Cc3cccc(Cl)c3)S2(=O)=O)c1 the results were miR-21 reporter -1%.
CCSc1ncc(Cl)c(C(=O)N2CCN(c3ccc(OC)cc3)CC2)n1 was read as miR-21 reporter -3%.
For CC(=O)c1ccc(NC(=O)c2cn(-c3ccccc3)nc2-c2ccc(Br)cc2)cc1 the results were miR-21 reporter -4%.
`COc1ccc(Nc2nnc(-c3ccc(C)c(S(=O)(=O)N4CCOCC4)c3)c3ccccc23)cc1` gave miR-21 reporter -13%.
Screening O=C(O)c1ccc(Nc2nc3ccccc3c3nncn23)cc1 returned miR-21 reporter -16%.
Screening COCCCn1c(=N)c(C(=O)NC2CCCC2)cc2c(=O)n3ccccc3nc21 returned miR-21 reporter -3%.
`COc1ccc(Cc2nc3ccc(C(=O)NCCc4ccc(Cl)cc4)cc3o2)cc1` gave miR-21 reporter -3%.
For O=S(=O)(Nc1ccc(-c2ccc(N3CCCC3)nn2)cc1)c1ccc(OC(F)(F)F)cc1 the results were miR-21 reporter 3%.
Screening CCOc1ccc(N2CC(NC(=O)c3ccc(S(=O)(=O)N4CCCC4)cc3)CC2=O)cc1 (centres undefined) returned miR-21 reporter -1%.
`CCc1ccc2oc(-c3ccc(C)c(NC(=O)c4cc([N+](=O)[O-])ccc4N4CCOCC4)c3)nc2c1` gave miR-21 reporter -10%.
COc1ccc2ncc3c(-c4ccccc4)nn(-c4ccc(C)c(C)c4)c3c2c1 was read as miR-21 reporter 3%.
For Cc1cc(C)c2sc(N3CCN(C(=O)C4CC4)CC3)nc2c1 the results were miR-21 reporter -53%.

For convenience, part of the list above:
For Cc1ccc(C)c(NC(=O)CN2CCCN(Cc3cccc(Cl)c3)S2(=O)=O)c1 the results were miR-21 reporter -1%.
CCSc1ncc(Cl)c(C(=O)N2CCN(c3ccc(OC)cc3)CC2)n1 was read as miR-21 reporter -3%.
For CC(=O)c1ccc(NC(=O)c2cn(-c3ccccc3)nc2-c2ccc(Br)cc2)cc1 the results were miR-21 reporter -4%.
`COc1ccc(Nc2nnc(-c3ccc(C)c(S(=O)(=O)N4CCOCC4)c3)c3ccccc23)cc1` gave miR-21 reporter -13%.
Screening O=C(O)c1ccc(Nc2nc3ccccc3c3nncn23)cc1 returned miR-21 reporter -16%.
Screening COCCCn1c(=N)c(C(=O)NC2CCCC2)cc2c(=O)n3ccccc3nc21 returned miR-21 reporter -3%.
`COc1ccc(Cc2nc3ccc(C(=O)NCCc4ccc(Cl)cc4)cc3o2)cc1` gave miR-21 reporter -3%.
For O=S(=O)(Nc1ccc(-c2ccc(N3CCCC3)nn2)cc1)c1ccc(OC(F)(F)F)cc1 the results were miR-21 reporter 3%.
Screening CCOc1ccc(N2CC(NC(=O)c3ccc(S(=O)(=O)N4CCCC4)cc3)CC2=O)cc1 (centres undefined) returned miR-21 reporter -1%.
`CCc1ccc2oc(-c3ccc(C)c(NC(=O)c4cc([N+](=O)[O-])ccc4N4CCOCC4)c3)nc2c1` gave miR-21 reporter -10%.
COc1ccc2ncc3c(-c4ccccc4)nn(-c4ccc(C)c(C)c4)c3c2c1 was read as miR-21 reporter 3%.
For Cc1cc(C)c2sc(N3CCN(C(=O)C4CC4)CC3)nc2c1 the results were miR-21 reporter -53%.

(more compounds)
Screening CCOC(=O)c1scc(-c2ccccc2)c1S(=O)(=O)Nc1cc(OC)cc(OC)c1 returned miR-21 reporter -1%.
For Cc1nn(C)c2c1c(-c1ccccc1)cc(=O)n2Cc1ccccc1F the results were miR-21 reporter -20%.
`Cc1ccc(C)c(NC(=O)c2nc(S(C)(=O)=O)ncc2N(Cc2ccc(C(C)(C)C)cc2)Cc2ccco2)c1` gave miR-21 reporter 1%.
COc1ccccc1CNC(=O)CN1C(=O)c2cccnc2Oc2ccccc21 was read as miR-21 reporter -31%.
`COC(=O)c1ccc(CSc2nc3c([nH]c4ccccc43)c(=O)n2-c2cccc(Cl)c2)o1` gave miR-21 reporter -5%.
Cc1nn(C)c(C)c1S(=O)(=O)N(CC(=O)Nc1ccc(F)cc1F)c1ccc(C(C)C)cc1 was read as miR-21 reporter 2%.
`COc1ccccc1CCNC(=O)C(=O)NCC(c1cccnc1)N1CCN(c2ccccc2)CC1` (centres undefined) gave miR-21 reporter 2%.
CCOc1ccc(CNCc2c(C(=O)O)c(C)n(Cc3ccc(F)cc3Cl)c2C)cc1 was read as miR-21 reporter 0%.
For CC1=C(C(=O)NCc2ccccc2C)C2(CCCCC2)OC1=O the results were miR-21 reporter -13%.
O=C1CSC2(C(=O)N(Cc3cccc(C(F)(F)F)c3)c3ccccc32)N1c1ccc(F)c(F)c1 (centres undefined) was read as miR-21 reporter 23%.
Screening COc1ccc(-c2nc3sc(CCNS(=O)(=O)c4c(C)cc(C)cc4C)c(C)n3n2)cc1 returned miR-21 reporter 19%.
CC(C)Sc1ncc(Cl)c(C(=O)N(Cc2ccc(F)cc2)C2CCS(=O)(=O)C2)n1 (centres undefined) was read as miR-21 reporter 0%.
Cc1ccc(OCCSc2nc(-c3cccs3)nc3cc(=O)[nH]n23)cc1Cl was read as miR-21 reporter -36%.
`Cc1ccccc1C(=O)n1nc(-c2cccnc2)nc1NCc1ccccc1` gave miR-21 reporter -4%.
Cc1ccc(-c2nc(CCNC(=O)c3ccc(C)c(C)c3)cs2)cc1 was read as miR-21 reporter 0%.
Screening CCC(=O)Nc1ccc2nc(SCCOc3ccc(C)cc3OC)sc2c1 returned miR-21 reporter -1%.
`Cc1n[nH]c(C)c1CCc1nc2c3ccccc3nc(SCC(=O)Nc3ccc(F)cc3)n2n1` gave miR-21 reporter 26%.
`Cc1ccc(NC(=O)CCCn2c(=O)c3cccn3c3ccccc32)cc1C` gave miR-21 reporter -2%.
`O=C(c1ccco1)n1nc(-c2ccc(Cl)cc2)nc1NCc1ccccc1` gave miR-21 reporter -24%.
Screening O=C(Nc1cccc(-c2cn3cccnc3n2)c1)c1cc(Br)ccc1Cl returned miR-21 reporter 0%.
Screening CC1CCCCN1C(=O)CN1CCSc2ccccc21 (centres undefined) returned miR-21 reporter -10%.
For Cc1cccc(NC(=O)C(=O)NCCc2sc(-c3ccccc3)nc2C)c1C the results were miR-21 reporter -1%.
For CCCCCn1c(C(C)NC(=O)c2ccccc2)nc2ccccc21 (centres undefined) the results were miR-21 reporter 9%.
`COc1ccc(NC(=O)c2cc3c(C)nn(-c4ccccc4)c3s2)c(OC)c1` gave miR-21 reporter 1%.
For Cc1cc(C)cc(N2CCn3c2nc2c3c(=O)n(Cc3c(F)cccc3Cl)c(=O)n2C)c1 the results were miR-21 reporter 4%.
For Cc1c(Cl)cccc1NC(=O)CCn1cnnn1 the results were miR-21 reporter 0%.
Cc1sc2c(c1C)c(=O)n(CCc1ccccc1)c(=O)n2Cc1ccccc1Cl was read as miR-21 reporter -4%.
`CCOc1ccccc1NC(=O)c1cc2c(=O)n(Cc3cccnc3)ccc2nc1C` gave miR-21 reporter -9%.
Cc1ccc2nc(-c3ccc(N4CCOCC4)cc3)c(Nc3ccccc3C)n2c1 was read as miR-21 reporter 10%.
For CCOC(=O)c1c(-c2ccc(C)cc2)csc1NC(=O)c1cc(=O)c2ccc(C)cc2o1 the results were miR-21 reporter 0%.
Cc1cc(SCC(=O)Nc2nsc(-c3ccc(C(C)(C)C)cc3)n2)nc2ccccc12 was read as miR-21 reporter -85%.
Screening COc1ccc2c(c1)c(=O)c(S(=O)(=O)c1ccccc1)cn2CC(=O)Nc1ccc(C)c(Cl)c1 returned miR-21 reporter 14%.
Screening CN(C(=O)CSc1nnc(-c2ccccc2F)o1)C1CCCCC1 returned miR-21 reporter -59%.
`CC(C)c1ccc(NC(=O)CCS(=O)(=O)c2ccc(Br)s2)cc1` gave miR-21 reporter 22%.
Cc1cccc(N2CCN(C(=O)c3cc4c(=O)n(C)c5ccccc5c4s3)CC2)c1C was read as miR-21 reporter 0%.
Cc1ccc(NC(=O)N2CC3CCCN3c3ccccc32)cc1Cl (centres undefined) was read as miR-21 reporter -10%.
Screening COc1cc(C(=O)Nc2ccc3[nH]c(=O)sc3c2)cc(OC)c1OC returned miR-21 reporter -17%.
Screening COc1ccc(NC(=O)c2c(NC(=O)COc3ccccc3)sc3c2CCC(C)C3)cc1 (centres undefined) returned miR-21 reporter -6%.
For COc1cc(NC(=O)Cn2c(=O)n(CC(=O)NCCc3ccc(OC)c(OC)c3)c(=O)c3sccc32)cc(OC)c1 the results were miR-21 reporter 1%.
For CC(=O)N1CCc2c(sc3c2c(=O)n(-c2ccc(C)cc2)c(=O)n3Cc2c(F)cccc2Cl)C1 the results were miR-21 reporter 1%.
Screening COc1ccc(CNC(=O)CCc2c(C)nc3c(c2C)c(=O)n(C)c(=O)n3C)cc1 returned miR-21 reporter -3%.
Fc1ccc(-c2noc3ncnc(NCC4CCN(Cc5ccc(Cl)cc5)CC4)c23)cc1 was read as miR-21 reporter 30%.
COc1ccccc1OCCn1c(NC(=O)c2ccccc2)nc2ccccc21 was read as miR-21 reporter -18%.
`CCc1ccccc1NC(=O)C1CCN(c2nn3c(=O)cc(C)nc3s2)CC1` gave miR-21 reporter -6%.
For Cc1ccc(-n2cc(-c3ccccc3)c3c(N4CCC(C)CC4)ncnc32)cc1Cl the results were miR-21 reporter -2%.
Screening O=C(Cn1ncc2c3ccccc3n(Cc3ccc(Cl)cc3)c2c1=O)N1CCCCCC1 returned miR-21 reporter 2%.
`CCOC(=O)c1cccc(NC(=O)c2cc3cc4cc(OC)ccc4nc3s2)c1` gave miR-21 reporter -3%.
For Cc1ccc(/C=C/c2onc(C)c2S(=O)(=O)N2CCC(C(=O)N(CCC(C)C)Cc3ccco3)CC2)cc1 the results were miR-21 reporter -1%.
For Cc1ccc2cc3c(N)nn(C(=O)c4cccc(F)c4)c3nc2c1 the results were miR-21 reporter -4%.
For COC(=O)CC(=O)CSc1nc2cc(C(=O)NC(C)C)ccc2c(=O)n1CCc1ccccc1 the results were miR-21 reporter 10%.
For Cc1ccc(Cn2c(CNS(=O)(=O)c3cccc([N+](=O)[O-])c3)nc3cccnc32)cc1 the results were miR-21 reporter -4%.
For CN(C)S(=O)(=O)N1CCC(N2CCN(Cc3ccc(F)cc3)C(=O)C2=O)CC1 the results were miR-21 reporter 0%.
CCc1nn(CCCC(=O)N2CCN(c3cccc(OC)c3)CC2)c(=O)c2cc3occc3n12 was read as miR-21 reporter -7%.
`COc1ccccc1N1CCN(C(=O)C2CCN(S(=O)(=O)c3c(C)noc3/C=C/c3ccc(C)cc3)CC2)CC1` gave miR-21 reporter -1%.
